Screening results (PubChem BioAssay)
T cell modulator = modulates CD8 T cell binding to vesicles; 2C CD8+ T cell-vesicle binding, flow cytometry; hits give low values; calls only at 7 µM; 0.068% of 330,000 active;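 active means response, share of CD8 T cells binding vesicles, and their 90th percentile fluorescence all below set limits, cut at about 80% in these data, passing the limit was not always enough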
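Read-out – percent CD8+ FL2 mean versus row control · System – murine 2C transgenic CD8+ T lymphocytes · Times – 1.5 h cell–vesicle binding at 37 °C, then 20 min icy labelling · Control set – naked vesicles low, QL9 vesicles with vehicle high · Detection – cytometric PE anti-B7-1 and Alexa647 anti-CD8 signals after 1% paraformaldehyde fixation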
RSV CPE inhibition = inhibition of RSV-induced cytopathic effect – HEp-2 cells, primary 10 µM value included (AID 2391); HEp-2 cells, RSV-induced CPE inhibition; higher % means a stronger effect; 0.13% of 310,000 active; CPE inhibition, % at 10 µM; hits with a dose series show IC50 in µM; in the data active means a potency from the dose series; further: strong numbers were not always called active
P. falciparum M1AAP = P. falciparum M1AAP inhibitors, biochemical, fluorogenic H-Leu-NHMec substrate, 1536-well (AID 1445); recombinant M1AAP, H-Leu-NHMec fluorogenic kinetic assay; higher % means a stronger effect; inhibition, % at 30 µM, or IC50 in µM where a hit was titrated; 0.42% of 220,000 active;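 active means primary inhibition above the hit cutoff, then over 50% inhibition at one or more dose response concentrations, cut at about 23% in these data, passing the limit was not always enough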;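 further: plate controls were DMSO full reaction for no effect and no enzyme background for full effect; strong numbers were not always called active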
K1F lysis inhibition = protection from phage-mediated lysis, alamar blue read-out – E. coli UTI89, K1F phage, bacterial capsule biogenesis inhibitors (AID 488966); 0.02% of 340,000 active; one-dose inhibition, % at 100 µM; IC50 in µM for titrated hits; E. coli UTI89 K1F phage lysis, alamar blue, 2 h; higher % means a stronger effect;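 active means phage lysis inhibition, versus mean bacterial control, above a set limit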;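 further: capsule biogenesis inhibitors block K1F phage lysis so surviving cells raise fluorescence; higher fluorescence means more inhibition of phage lysis; actives were called in the ten point dose series up to 300 µM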
M17LAP inhibition = P. falciparum M17LAP inhibitors, primary screen, biochemical, fluorogenic H-Leu-NHMec substrate, 1536-well (AID 1619). recombinant M17LAP, H-Leu-NHMec fluorogenic kinetic assay; higher % means a stronger effect. 0.38% of 220,000 active. one-dose inhibition, % at 30 µM; IC50 in µM for titrated hits;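 active means compound inhibiting the enzyme by more than half at any dose during confirmatory dose-response retesting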;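 further: plate controls were full reaction with DMSO carrier for no effect and no enzyme background for full effect; strong numbers were not always called active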
TNAP activation fold = stimulation of alkaline phosphatase TNAP activity – biochemical, luminescent, no phosphate acceptor, uHTS, primary screen (AID 1001). purified TNAP, luminescent activation assay, no phosphate acceptor; higher activation fold means a stronger effect. 0.03% of 200,000 active. activation fold at 20 µM, or EC50 in µM where a hit was titrated; in the data active means activation fold from about 3, or a potency from the dose series; inactive means the rest, 99 in 100 with activation fold below about 1.6; further: many of its hits are not listed in these tables
West Nile virus CPE = West Nile virus antiviral activity, cell-based, CPE readout (AID 1621); West Nile virus-infected cells, CPE inhibition; higher % means a stronger effect; CPE inhibition, % at 10 µM; hits with a dose series show IC50 in µM; 0.02% of 290,000 active; in the data active means a potency from the dose series; further: strong numbers were not always called active
T cell modulator vesicle-bound % = also measured in T cell modulator; calls as there; double positive events, %; measured here: CD8+ vesicle-bound cell fraction;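 binding gate set so that unloaded-vesicle control wells show 10% double positive cells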
Active calls of the source: *; i = inactive; . = no result given; [ ] = another dose, or the depositor's remark. This is a subset; rates above refer to the full screens.

nr | smiles | T cell modulator | T cell modulator vesicle-bound % | RSV CPE inhibition | P. falciparum M1AAP
1 | Clc1ccc(CSc2nnc(-c3cccnc3)o2)cc1 | i | 9 | 5.0% | 7%
2 | CCCN(CCC)CCNC(=O)C1CCCN(S(=O)(=O)c2ccc3c(c2)oc(=O)n3C)C1 (stereo not drawn) | i | 13 | 0.5% | 4%
3 | CC12CCC(C(=O)N(NC(=O)c3ccc(O)cc3)C1=O)C2(C)C (stereo not drawn) | i | 49 | -0.6% | 1%
4 | CCOC(=O)C1CCCN(C(=O)C2CCN(S(=O)(=O)CC)CC2)C1 (stereo not drawn) | i | 20 | 1.6% | 10%
5 | Cn1c(=O)c2c(nc(NCC3CCCO3)n2Cc2cccc(Br)c2)n(C)c1=O (stereo not drawn) | i | 28 | 2.3% | 20%
6 | Cc1ccc2cn[nH]c2c1NC(=S)NC(=O)c1ccccc1 | i | 37 | 0.9% | 11%
7 | CCOC(=O)C1=C(CSc2nc(-c3ccccc3)ccc2C#N)OC(N)=C(C#N)C1c1ccc(OC)cc1 (stereo not drawn) | i | 52 | 2.4% | 6%
8 | Cc1ccc(NC(=O)CSc2nc(O)cc(=O)n2C)cc1 | i | 33 | 1.1% | 8%
9 | CC(C)Oc1ccc(C2CC(=O)NC3=C2C(=O)CCC3)cc1 (stereo not drawn) | i | 1 | -0.7% | 6%
10 | CCCN(c1nc(C)cc(OC)n1)S(=O)(=O)c1ccccc1 | i | 20 | 8.1% | 5%
11 | CC(=O)C1C(c2cccc(F)c2)NC(=O)NC1(O)C(F)(F)F (stereo not drawn) | i | 28 | 0.8% | 0%
12 | CN1C(=O)C(CC(N)=O)N(NC(=O)c2ccc(Cl)cc2)C1=S (stereo not drawn) | i | 30 | 19% | 10%

nr | K1F lysis inhibition | M17LAP inhibition | TNAP activation fold | West Nile virus CPE
1 | 0.2% | 0% | 1.1 | -0.2%
2 | 6.1% | 7% | 0.9 | -0.2%
3 | 0.3% | -7% | 1.1 | 0.4%
4 | 2.8% | 1% | 1 | -0.4%
5 | 0.1% | -6% | 1.1 | -0.6%
6 | 0.2% | 10% | 0.9 | 0.7%
7 | -0.3% | 0% | 0.9 | 0.1%
8 | -2.1% | 7% | 1.1 | -0.9%
9 | 0.5% | -3% | 1.1 | 0.6%
10 | 5.6% | -8% | 1.1 | 0.1%
11 | 2.6%[50 µM] | -8% | 1 | .
12 | 0.7% | -8% | 1.1 | -1.0%

Other compounds.
nr | smiles | T cell modulator | T cell modulator vesicle-bound % | RSV CPE inhibition | P. falciparum M1AAP
13 | CC(C)OC(=O)C(CC(=O)O)N1CCOCC1 (stereo not drawn) | i | 35 | 0.1% | 3%
14 | CN(/C=C/C(=O)C(F)(F)F)Cc1ccccc1 | i | 61 | 1.6% | 13%
15 | COc1ccc2cc(CN(CCO)C(=O)c3ccc(Br)cc3)c(=O)[nH]c2c1 | . | . | . | 6%
16 | COC(CNC(=O)c1ccc(N2CCCC2=O)cc1)OC | i | 19 | 1.0% | 2%
17 | CCn1c(=O)n(CC)c2cc([N+](=O)[O-])ccc21 | i | 44 | -0.7% | 3%
18 | Cc1ccc(-c2nnc(SCC(=O)NNC(=O)COc3cccc(C)c3)n2C)cc1 | i | 5 | 2.4% | 5%
19 | COc1ccc(OCc2nnc(SCC(=O)N3c4ccccc4Sc4ccc(Cl)cc43)o2)cc1 | i | 29 | 16% | 8%

nr | K1F lysis inhibition | M17LAP inhibition | TNAP activation fold | West Nile virus CPE
13 | 1.7% | 6% | 1.1 | 1.8%
14 | -0.5% | 6% | 1.1 | 1.2%
15 | -0.1% | 12% | 1 | 0.0%
16 | -1.1% | 9% | 1.1 | 0.2%
17 | 0.2% | 18% | 1.1 | 0.3%
18 | -2.0% | 6% | 2 | 0.8%
19 | 0.2% | -13% | 1 | -0.9%

Part of the list above in order of molecular weight, descending.
nr | smiles | T cell modulator | T cell modulator vesicle-bound % | RSV CPE inhibition | P. falciparum M1AAP
2 | CCCN(CCC)CCNC(=O)C1CCCN(S(=O)(=O)c2ccc3c(c2)oc(=O)n3C)C1 (stereo not drawn) | i | 13 | 0.5% | 4%
5 | Cn1c(=O)c2c(nc(NCC3CCCO3)n2Cc2cccc(Br)c2)n(C)c1=O (stereo not drawn) | i | 28 | 2.3% | 20%
15 | COc1ccc2cc(CN(CCO)C(=O)c3ccc(Br)cc3)c(=O)[nH]c2c1 | . | . | . | 6%
18 | Cc1ccc(-c2nnc(SCC(=O)NNC(=O)COc3cccc(C)c3)n2C)cc1 | i | 5 | 2.4% | 5%
10 | CCCN(c1nc(C)cc(OC)n1)S(=O)(=O)c1ccccc1 | i | 20 | 8.1% | 5%
6 | Cc1ccc2cn[nH]c2c1NC(=S)NC(=O)c1ccccc1 | i | 37 | 0.9% | 11%
8 | Cc1ccc(NC(=O)CSc2nc(O)cc(=O)n2C)cc1 | i | 33 | 1.1% | 8%
1 | Clc1ccc(CSc2nnc(-c3cccnc3)o2)cc1 | i | 9 | 5.0% | 7%
9 | CC(C)Oc1ccc(C2CC(=O)NC3=C2C(=O)CCC3)cc1 (stereo not drawn) | i | 1 | -0.7% | 6%
16 | COC(CNC(=O)c1ccc(N2CCCC2=O)cc1)OC | i | 19 | 1.0% | 2%
14 | CN(/C=C/C(=O)C(F)(F)F)Cc1ccccc1 | i | 61 | 1.6% | 13%

nr | K1F lysis inhibition | M17LAP inhibition | TNAP activation fold | West Nile virus CPE
2 | 6.1% | 7% | 0.9 | -0.2%
5 | 0.1% | -6% | 1.1 | -0.6%
15 | -0.1% | 12% | 1 | 0.0%
18 | -2.0% | 6% | 2 | 0.8%
10 | 5.6% | -8% | 1.1 | 0.1%
6 | 0.2% | 10% | 0.9 | 0.7%
8 | -2.1% | 7% | 1.1 | -0.9%
1 | 0.2% | 0% | 1.1 | -0.2%
9 | 0.5% | -3% | 1.1 | 0.6%
16 | -1.1% | 9% | 1.1 | 0.2%
14 | -0.5% | 6% | 1.1 | 1.2%
